Bioassay records deposited in PubChem by Fisher Drug Discovery Resource Center.
NPYLR7 agonist: mosquito NPYLR7 agonism. HEK293T NPYLR7/Galpha15, GCaMP6s calcium fluorescence. 270,000 compounds, 0.15% hits. activation, % at 10 µM. AID 1259423; in the data active means activation above about 40%;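 further: 0% = vehicle and 100% = reference agonist at the receptor; some compounds past the cut are filed as inactive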
NPYLR7 agonist max-min: second read-out of NPYLR7 agonist, no call of its own (marks repeat the call); activation, %; measured here: Max-Min RFU normalised activation; some inactives read as strong as hits;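 span of the calcium signal over five minutes; 0% = vehicle and 100% = native peptide agonist; compound fluorescence can raise it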
Starred values were filed as active, the others as inactive; & = joins results of further samples. These rows are one share of the data; the hit share may differ from the screen's.

compound	NPYLR7 agonist	NPYLR7 agonist max-min
CN(C)S(=O)(=O)c1ccc2nnn(OCc3nnc(-c4ccccc4)o3)c2c1	15	8
CCCCCCCC(=O)Nc1cc(C(C)(C)C)nn1-c1ccc(Cl)cc1	1	14
O=C(NCCN1CCOCC1)c1cc(COc2cccc(C(F)(F)F)c2)[nH]n1	-3	-5
O=[Si]=O	-3	-7
CN(CCN1CCCCCC1)C(=O)c1cc(CN2CCCC(O)C2)on1 (stereo unspecified)	-1	-2
CCOCCCNC(=O)c1cc(NC(=O)c2c(OC)cccc2OC)ccc1N1CCN(c2ccccc2OC)CC1	0	6
Cc1cccc(-n2c(C)cc(C(=O)Cn3ncc(Cl)c(Cl)c3=O)c2C)c1	0	12
CCc1nnsc1C(=O)N1CCC(=O)N(CC2CC2)C(C(C)C)C1 (stereo unspecified)	1	11
Oc1oc(-c2ccc(Cl)cc2)nc1C=Nc1ccc(F)cc1	2	3
CCOCCCN(CC(=O)N(Cc1ccc2c(c1)OCO2)Cc1ccc(C)o1)S(=O)(=O)c1ccc(Br)cc1	9	17
Oc1ccccc1C1CC(c2ccc3c(c2)OCO3)=NC(c2cccc(F)c2)N1 (stereo unspecified)	4	1
O=C(c1cc(COc2ccccc2)[nH]n1)N1CCC(Nc2ncccn2)CC1	0	-2
COc1ccc(-c2c3c(=O)n(C)c(=O)n(C)c3c3cnc4ccccc4n23)cc1	-10	-17
O=C(CCN1CCN(Cc2cccs2)CC1)Nc1ccc(F)c(F)c1	6	4
CCCNCc1ccc(-c2ccnc3[nH]ccc23)cc1	1	-1
CCC(=O)NCCc1cc2cc(C)c(C)cc2[nH]c1=O	1	58
CCCN(Cc1cc(NS(=O)(=O)c2ccc(OC)cc2)ccc1N(C)C)C(=O)NC(C)(C)C	3	3
C=C(C)CN(C)C(C)c1cccc(O)c1 (stereo unspecified)	2	0
Cc1c(NC(=O)CCCN2C(=O)c3cccc4cccc(c34)C2=O)c(=O)n(-c2ccccc2)n1C	16	-3
CCCCN(CC)C(=O)c1cc(C)[nH]c(=O)n1	5	3
CC(C)COCCC(=O)NCC1CSCCS1 (stereo unspecified)	0	0
CNC(=O)[C@@H]1C[C@@H](N)CN1C(=O)c1ccc(CSc2ccccn2)cc1	31	20
Cc1cc(=O)oc2cc(OC(C)C)c(Cl)cc12	0	2
O=C(NCC1CC1)C1Cc2ccccc2CN1C(=O)c1ccco1 (stereo unspecified)	6	3
CC(C)CSc1nnc(Nc2ccc(C(C)C)cc2)s1	5&-5	5&-5
Cc1nc2n(n1)C(=O)C(C(c1cccc(Br)c1)N1CCC(C)CC1)S2 (stereo unspecified)	0	-1
CCCCCC(=O)NC(Cc1ccccc1)c1nnc(SCc2ccccc2)n1-c1cc(Cl)ccc1C (stereo unspecified)	15	15
CNC(=O)CSc1nc(-c2ccccc2)c(NC(=O)c2ccccc2)s1	-6	-11
Cc1ccccc1CSc1nnc(C(C)NC(=O)Nc2ccccc2F)n1-c1cc(Cl)ccc1C (stereo unspecified)	-4	-4
CCNC(=O)N1CCC(NC2CCN(C(C)C)CC2)CC1	9	1
Clc1ccc(CCCOCCCN2CCCCC2)cc1	8	-4
COc1ccc(C(=O)C(C)Sc2nnc(-c3cccs3)n2C)cc1 (stereo unspecified)	8	4
CN1CCN(c2nc3c([nH]2)c(=N)ncn3CC(O)CO)CC1 (stereo unspecified)	1	-1
N#C/C(C(N)=O)=C1/SC(Cc2cccc([N+](=O)[O-])c2)C(=O)N1c1ccccc1 (stereo unspecified)	-2	-6
CCCc1ccc(S(=O)(=O)N2CCN(C(=O)c3ccco3)CC2)cc1	12&-7	12&-12
Cc1cccc(C2=N/C(=C\c3ccc4c(c3)OCO4)C(=O)O2)c1	15	11
CS(=O)(=O)c1ccc(NS(=O)(=O)c2ccc(Cl)c(O)c2)cc1	1	-2
O=C(Cc1cccnc1)N1CCN(c2nnc(C(F)(F)F)s2)CC1	-4	-8
CC1(C)CC(=O)C(=C2SCCS2)C(=O)C1	4	1
Cc1cc(OCC2CN(C(=O)CCOc3ccc(Cl)cc3)CCO2)ccc1Cl (stereo unspecified)	5	2
CCCc1cc(=O)[nH]c(-n2nc(C)cc2NC(=O)c2cccc(OC)c2)n1	14	7
CN(CC(=O)Nc1ccc(F)c(F)c1F)C(=O)CNC(=O)c1ccc(Cl)c(Cl)c1	10	8
C=CCNC(=O)Cn1c(-c2nnc(CC)o2)cc2ccccc21	0	-1
COc1ccccc1C(=O)COC(=O)CNS(=O)(=O)c1ccc(Br)cc1	18	8
CC(C)NC(=O)N(Cc1cc(NC(=O)C2CCC2)ccc1N(C)C)CC1CCCO1 (stereo unspecified)	19	23
Cc1n[nH]c(=S)n1C1CC1	4	2
CN(CCc1c[nH]c2ccccc12)C(=O)c1cncn1-c1ccc(-c2cc(C(F)(F)F)cc(C(F)(F)F)c2)cc1	13	12
Cc1csc(-c2nonc2N)n1	3	3
CCC(CC)C(=O)N1c2cccc3c2[C@@H](C[C@H]1C(=O)NC)CN(Cc1ccc(OC)cc1)C3=O	0	3
O=C(O)C1C2CC(c3ccccc3)C(C2)C1C(=O)O (stereo unspecified)	9	8
CCc1[nH]c2ccc(CNC(=O)c3ccc(Cn4ccnc4)o3)cc2c1C	-2	-2
COC(=O)CN1CCN(c2nc3c(c(=O)[nH]c(=O)n3C)n2CCC(C)C)CC1	-8	-9
CCCn1cnnc1CNC1CSCCSC1	-2	-2
O=C(c1ccc2c(c1)OCO2)N1CCCC(c2nc(-c3cccnc3)ncc2-c2ccccc2F)C1 (stereo unspecified)	-4	-7
N#CCNC(=O)c1cc2nc(-c3ccccc3)cc(C(F)(F)F)n2n1	-8	-12
Cc1cc(C)c(NC(=O)CCCn2nc(-c3ccc(Cl)cc3)ccc2=O)c(C)c1	7	9
Cc1ccc2nc(N(CCCN(C)C)C(=O)c3cccs3)sc2c1	30	33
CCc1nccn1C(C)C(=O)O (stereo unspecified)	0	-5
O=C(CCCc1cccs1)NC1CCCN(c2ccc(C(F)(F)F)cn2)C1 (stereo unspecified)	9	0
CC(C)(C)c1ccc(CSc2ncccc2C(=O)NCCCN2CCOCC2)cc1	-1	0

One compound at a time, as listed above. Screens in order: NPYLR7 agonist	NPYLR7 agonist max-min
Listed for CCCn1cnnc1CNC1CSCCSC1 → -2	-2
Listed for Cc1ccc2nc(N(CCCN(C)C)C(=O)c3cccs3)sc2c1 → 30	33
Listed for CN(CCc1c[nH]c2ccccc12)C(=O)c1cncn1-c1ccc(-c2cc(C(F)(F)F)cc(C(F)(F)F)c2)cc1 → 13	12
Listed for CCc1[nH]c2ccc(CNC(=O)c3ccc(Cn4ccnc4)o3)cc2c1C → -2	-2
Listed for O=C(c1ccc2c(c1)OCO2)N1CCCC(c2nc(-c3cccnc3)ncc2-c2ccccc2F)C1 (stereo unspecified) → -4	-7

Next records
compound	NPYLR7 agonist	NPYLR7 agonist max-min
COc1cccc(OCc2nc(-c3ccc(Br)o3)no2)c1	-1	-3
c1ccc(-c2nnc(Cn3c4ccccc4c4nc5ccccc5nc43)o2)cc1	-1	2
CC(C)C(=O)N=c1sc2cc(Cl)cc(Cl)c2n1C	13	12
Cc1cc(C(=O)N2CC[C@H]3CC(=O)N(CCN4CCNC4=O)CC[C@H]3C2)no1	-13	-18
NC1=NC(c2ccccc2I)n2c(nc3ccccc32)N1 (stereo unspecified)	2	-2
CC(C)N1CCC(N2CCN(Cc3cccc4c3OCO4)CC2CCO)CC1 (stereo unspecified)	10	3
CC(N)c1csc(Nc2cc(Oc3ccccc3)ncn2)n1 (stereo unspecified)	-2	-8
O=C1Nc2ccccc2C1C=NN1CCCCC1 (stereo unspecified)	2	-1
C=C(C)CNC(=S)NNC(=O)c1cccc(C)c1[N+](=O)[O-]	1	1
C[C@@H]1[C@H]2C[C@@H](C[C@H]1NC(=O)c1ccc(CSc3ccc4ccccc4n3)cc1)C2(C)C	-7	-12
CCCN(C(=O)Cn1ccc(=O)c2ccccc21)[C@@H]1CCCC[C@H]1O	-7	-10
CCCCC(O)CN1CCc2nc(Cc3cccc(C)c3)[nH]c(=O)c2C1 (stereo unspecified)	3	13
CC1CCc2sc(C(=O)N=Nc3c(O)[nH]c4ccc(Br)cc34)cc2C1 (stereo unspecified)	3	0
Cc1noc(C)c1CCC(=O)Nc1cccc(-c2nnc3n2CCCCC3)c1	2	1
Fc1ccccc1-c1noc2nc(OCc3ccc(-n4cncn4)cc3)ccc12	-2	-3
CCSc1ccccc1C(=O)Nc1c2c(nn1CC(=O)NCc1ccco1)CSC2	-5	0
CCN(Cc1cccc(F)c1)CC(O)COc1ccccc1 (stereo unspecified)	2	0
CC1(C(=O)NCCc2ccccc2)CCN1CCc1ccccc1 (stereo unspecified)	-5	-8
CCCCN(CC(=O)N(CCc1c[nH]c2ccccc12)Cc1ccc(OC)cc1)C(=O)Nc1ccccc1OC	13	20
CC(=O)c1ccc(NC(=O)CCN(C)CCOc2ccc(C)cc2)cc1	-1	-4

Additional structures
structure	NPYLR7 agonist	NPYLR7 agonist max-min
CSCc1ccc(NC(=O)C(=O)NCc2ccc(C)nc2)cc1	2	1
CCOC(=O)C1CCCN(C(=O)CC(c2ccc(Cl)c(Cl)c2)c2c[nH]c3c(CC)cccc23)C1 (stereo unspecified)	1	2
Cc1ccsc1CN(C)C(=O)C1(Oc2cccnc2C)CCNCC1	0	-6
CN(C)S(=O)(=O)N1CCN(C(=O)c2ccco2)CC1	-1	-1
Fc1cccc(Oc2ccc3c(C4CC4)noc3n2)c1	2	-2
Cc1nn(C)c(Cl)c1S(=O)(=O)N1C[C@@H]2[C@@H]3CC[C@@H](C3)[C@@H]2C1	-4	-4
COc1ccc(N(CC(=O)NC2CC2)S(=O)(=O)c2ccccc2[N+](=O)[O-])c(OC)c1	-4	-13
Cc1cc(C(=O)N2CCN(c3cc(Cl)ccc3C)CC2)c2c(=O)[nH]n(C)c2n1	-2	-3
FC(F)Oc1ccc(NC(=S)NC2CCCC2)cc1	21	17
Clc1ccc(-c2ccc3nnc(-c4cccc(Cl)c4)n3c2)cc1	-3	-15
Cc1cccc(COn2c(=O)c(-c3ccccc3)[n+]([O-])c3ccccc32)c1	2	-1
COCC(=O)NCCCn1nc(-c2ccc(C)cc2)ccc1=O	1	0
O=C(Nc1nc2ccccc2n1CCN1CCOCC1)c1cccc([N+](=O)[O-])c1	-5	26
Cc1cn2c3c(=O)[nH]c(=O)n(C)c3nc2n1C(C)c1ccccc1 (stereo unspecified)	4	4
Cc1ccc(-c2ccc(CCC(=O)N3CCCN(C=O)CC3)n2-c2ccc(CC#N)cc2)c(C)c1	-2	-2
Cc1ccc(Nc2nc(-c3ccc4c(c3)oc(=O)n4C)cs2)cc1C	4	1
CCCCOc1ccc(S(=O)(=O)N2CCC(c3c[nH]c4ccc(OC)cc34)CC2)cc1	4	-4
CCN(C(=O)CN(C)Cc1ccc(C)cc1C)C1CCS(=O)(=O)C1 (stereo unspecified)	13	8
Cc1ccc(-c2[nH]ncc2CNC2CCCC(C(F)(F)F)C2)o1 (stereo unspecified)	2	2
COc1ccc(NC(=O)CSc2nnc(N)s2)cc1	5	0

Next part (five carried over from the part before).
structure	NPYLR7 agonist	NPYLR7 agonist max-min
Cc1ccc(Nc2nc(-c3ccc4c(c3)oc(=O)n4C)cs2)cc1C	4	1
CCCCOc1ccc(S(=O)(=O)N2CCC(c3c[nH]c4ccc(OC)cc34)CC2)cc1	4	-4
CCN(C(=O)CN(C)Cc1ccc(C)cc1C)C1CCS(=O)(=O)C1 (stereo unspecified)	13	8
Cc1ccc(-c2[nH]ncc2CNC2CCCC(C(F)(F)F)C2)o1 (stereo unspecified)	2	2
COc1ccc(NC(=O)CSc2nnc(N)s2)cc1	5	0
COC(=O)C(C(F)(F)F)C(F)(F)SC(C(C)=O)=C(C)O (stereo unspecified)	0	57
CCNC(=O)Cn1c(CO)cnc1SCc1cccc(C(F)(F)F)c1	20	16
O=C(CNC(=O)c1ccccc1)NCC(=O)N1CCOC(COCc2ccccc2F)C1 (stereo unspecified)	-1	-3
Cc1ccc(-n2c(SCc3ccc(F)cc3)nnc2C(Cc2ccccc2)NC(=O)/C=C/c2ccc([N+](=O)[O-])cc2)cc1 (stereo unspecified)	13	21
Cc1ccc(NC(=O)c2ccc(S(=O)(=O)N(C)C)o2)cc1	6	4
Cn1c(=O)c(-c2c(-c3ccccc3)ncn2CC(O)CO)cc2ccccc21 (stereo unspecified)	2	0
CC(C)CNC(=O)C(NC(=O)C(C)C)C1CCN(C(=O)c2ccc(Cl)cc2)CC1 (stereo unspecified)	-3	16
Cc1c(C#N)sc(NC(=O)CCl)c1C#N	2	-2
CC(C)c1cc(C(=O)NCc2nc(-c3ccccc3)n[nH]2)n(C)n1	5	-3
O=C(CNCCCN1CCOCC1)N(Cc1ccccc1)Cc1ccco1	-17	-11
CCOc1ccccc1NC(=O)N(Cc1ccc(OS(=O)(=O)CC)cc1)C(C)CC (stereo unspecified)	-4	2
CC(=O)Cn1c(=O)c2c(nc3n(-c4ccc(N(C)C)cc4)c(C)cn23)n(C)c1=O	0	17
CC1CN(C(=O)c2cc3ccsc3n2Cc2ccccc2F)CCN1C(=O)Nc1ccccc1F (stereo unspecified)	14	8
CCOC(=O)C1CCN(C(=O)c2ccc(CSc3nc(N4CCCCC4C)cc(C(F)(F)F)n3)cc2)CC1 (stereo unspecified)	6	0
Cc1c(C(=O)O)oc2ccc(I)cc12	11	9
C[C@H](CCC(=O)O)[C@H]1CCC2C3C(=O)CC4CC(=O)CC[C@]4(C)C3CC(=O)[C@@]21C (stereo partly specified)	-5&-13	-7&-18
